# Screening results (PubChem BioAssay)
# BLM inh: blocks DNA unwinding by human BLM helicase; Potency, µM (top dose mostly 56.1 µM), inactives show at the top dose activity change, negative = inhibition, usual class: inhibitors; 350,000 tested, 0.2% active; P54132; recombinant BLM DNA unwinding, fluorescence dequenching; AID 2528;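 note: plate controls were vehicle for no effect and no enzyme for full effect; nearly all actives have a fitted effect of over 35% in size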
# Target sequence (P54132 whole entry, looked up): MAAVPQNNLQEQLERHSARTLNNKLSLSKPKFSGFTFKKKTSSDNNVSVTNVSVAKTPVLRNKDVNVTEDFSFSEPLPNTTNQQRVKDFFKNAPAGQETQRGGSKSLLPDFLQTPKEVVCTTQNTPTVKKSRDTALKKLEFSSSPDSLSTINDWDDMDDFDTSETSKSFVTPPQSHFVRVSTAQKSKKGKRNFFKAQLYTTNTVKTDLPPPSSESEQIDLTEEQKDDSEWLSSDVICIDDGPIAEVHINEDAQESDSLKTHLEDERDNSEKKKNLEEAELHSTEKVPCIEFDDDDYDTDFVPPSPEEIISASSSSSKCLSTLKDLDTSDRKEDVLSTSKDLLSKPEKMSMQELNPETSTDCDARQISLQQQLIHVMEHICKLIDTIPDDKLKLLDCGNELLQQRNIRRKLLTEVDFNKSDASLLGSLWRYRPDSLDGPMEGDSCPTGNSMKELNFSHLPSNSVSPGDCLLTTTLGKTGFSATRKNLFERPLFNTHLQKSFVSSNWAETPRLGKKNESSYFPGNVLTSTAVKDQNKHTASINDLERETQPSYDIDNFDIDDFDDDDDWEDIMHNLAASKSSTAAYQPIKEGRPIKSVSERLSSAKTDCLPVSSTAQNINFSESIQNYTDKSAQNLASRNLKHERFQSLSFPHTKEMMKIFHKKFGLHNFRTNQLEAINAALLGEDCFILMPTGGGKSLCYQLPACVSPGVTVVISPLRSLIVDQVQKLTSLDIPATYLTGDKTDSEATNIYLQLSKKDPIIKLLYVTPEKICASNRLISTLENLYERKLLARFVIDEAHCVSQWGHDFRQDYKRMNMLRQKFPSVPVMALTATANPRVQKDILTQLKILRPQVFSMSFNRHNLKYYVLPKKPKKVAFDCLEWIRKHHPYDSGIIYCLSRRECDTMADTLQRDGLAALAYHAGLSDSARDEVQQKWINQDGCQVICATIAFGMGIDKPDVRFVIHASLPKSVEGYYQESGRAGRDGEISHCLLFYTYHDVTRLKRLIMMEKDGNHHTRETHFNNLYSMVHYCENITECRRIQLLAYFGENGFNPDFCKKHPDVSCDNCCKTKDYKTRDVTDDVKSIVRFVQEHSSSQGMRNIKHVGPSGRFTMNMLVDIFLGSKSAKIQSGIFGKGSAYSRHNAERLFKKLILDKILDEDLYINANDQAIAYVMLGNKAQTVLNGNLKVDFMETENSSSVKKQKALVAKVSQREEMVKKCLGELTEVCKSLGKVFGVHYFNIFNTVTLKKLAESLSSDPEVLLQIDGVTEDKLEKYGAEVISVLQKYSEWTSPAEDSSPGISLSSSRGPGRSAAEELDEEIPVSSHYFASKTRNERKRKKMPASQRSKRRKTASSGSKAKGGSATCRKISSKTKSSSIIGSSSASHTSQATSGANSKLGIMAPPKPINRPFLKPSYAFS
# G9a block: G9a (human) methyltransferase inhibition. AID 504332. Potency, µM (series often up to 102 µM), inactives show at the highest dose activity, negative = inhibition, usual class: inhibitors. 350,000 tested, 8.8% active. G9a H3K9 monomethylation, AlphaScreen, 2 h. Q96KQ7; note: % is set by controls: 0 for no effect and ±100 for the full control effect; nearly all actives have a fitted effect of over 75% in size
#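 AlphaScreen detection with an anti-monomethyl H3K9 antibody quantified product after a 2 h room-temperature reaction containing 500 nM biotinylated H3K9 peptide, 20 µM SAM and 20 nM enzyme, which had been preincubated 15 min with compound.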
# POLK inh: inhibitors of human DNA polymerase kappa | Q9UBT6 | purified Pol kappa, fluorescent DNA synthesis assay, 10 min | Potency, µM (titrated, usually from 107 µM), without a hit: top-dose activity, negative = inhibition, most hits filed as inhibitors | 400,000 tested, 0.53% active; note: % is set by controls: 0 for no effect and ±100 for the full control effect
#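 Kinetic fluorescence readout at 0 and 10 min followed reaction start with substrate at 50 nM final. Beforehand, enzyme (10 nM Pol kappa) stood 15 min with compound at room temperature; buffer-only wells were negative controls.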
# POLI inh: inhibitors of human DNA polymerase iota; Q9UNA4; Pol iota fluorescent replication assay, 10 min; Potency, µM (highest dose often 115 µM), for the others: at the top dose activity, negative = inhibition, most hits filed as inhibitors; 390,000 tested, 1% active
#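 Fluorescent replication assay read twice, at 0 min and 10 min after adding 50 nM (final) substrate. Enzyme (10 nM) and compounds were first incubated 15 min at room temperature; enzyme-free buffer wells were negative controls.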
# JMJD2A Tudor: blocks the human JMJD2A Tudor domain. O75164. AlphaScreen JMJD2A-Tudor / H3K4me3 peptide binding. AID 504339. Potency, µM (doses to about 114 µM), inactives show at the top dose activity change, negative = inhibition, hits mostly inhibitors. 390,000 tested, 4.4% active; note: % is set by controls: 0 for no effect and ±100 for the full control effect; nearly all actives have a fitted effect of over 50% in size
# The depositor's hits bear a star; ? = inconclusive; . = no result given; & = joins results of further samples; [ ] = dose if it differs, or a comment. Calls come from the whole dose curve; as a rule, active = well fitted curve in the direction sought with a large enough effect; inconclusive = small, poorly fitted or top-dose-only effect, or another doubt; inactive = no such curve, though single readings can be large; an effect the other way counts as inactive or inconclusive. Potency is the fitted concentration of half-maximal effect. A portion of the library, so the mix of outcomes need not match the whole.
BLM inh	G9a block	POLK inh	POLI inh	JMJD2A Tudor	SMILES
-5%	?	-11%	63%[activator]	?	COc1cc(/C=C(\C#N)C(=O)Nc2cccc(C(=O)O)c2)ccc1OCc1ccc(C)cc1
3%	-7%[12.7 µM]	-3%	-4%	-34%	CC1CN(C2CCCCC2)c2nc3c(c(=O)[nH]c(=O)n3C)n2C1 (stereo not given)
-4%	32µM*	15%	48%[activator]	-32%	Nc1nc2c(s1)COc1ccccc1-2
45%[activator]	10µM*	25µM*	?	35µM*	O=C(/C=C/c1ccco1)NC(=S)Nc1ccc(C(=O)O)cc1
-3%	16%	12%	9%	5%	CCOc1ccc(/C=N/Nc2nncc(-c3ccccc3)n2)cc1OC
-1%	?	0%	12%	-10%	CN(C)CCN(C(=O)c1cccc(N2C(=O)CCC2=O)c1)c1nc2ccc(Br)cc2s1
-4%	23%[59 µM]	-11%	-26%	6%	O=C(Nc1ccccc1OC(F)F)c1cc2c(s1)CCC2
.	.	-1%	26%	14%	CCCCCc1cc(=O)c2ccccc2o1
-3%	3%	-10%	27%	-12%	COCCNC(=O)COC(=O)/C=C/c1cnc2ccccc2n1
3%	35%[59 µM]	-6%	3%	-9%	COc1ccc(C(=O)Nc2ccc(/C(C)=N/NC(=O)c3ccccc3O)cc2)cc1OC
-4%	-5%[59 µM]	-3%	15%	0%	CCOC(=O)c1c(NC(=O)CSc2nc3ccccc3o2)sc(C(C)=O)c1C
-4%	12%	-2%	?	-2%	O=c1[nH]c(=O)n([C@H]2C[C@H](O)[C@@H](CO)O2)cc1C(F)(F)F
0%	-13%[59 µM]	2%	-14%	-15%	NCCCC[C@H]1CNC(=O)C(=O)N1CC1CCCCC1
-22%	.	?	?	?	O=C(Cc1ccc(S(=O)(=O)N2CCOCC2)s1)Nc1ccccc1Br
.	12%[12.7 µM]	-7%	1%	-3%	Cc1cc(C)c(NC(=O)CNC(=O)Cc2ccc(S(=O)(=O)N3CCOCC3)s2)c(C)c1
-1%	-3%	12%	26%	-16%	CS(=O)(=O)c1ccc(Cl)c(NC(=O)COC(=O)/C=C/c2cnc3ccccc3n2)c1
-1%	10%	-13%	7%	-1%	CCCc1cc(=O)[nH]c(SCC(=O)Nc2cccc3ccccc23)n1
5%	-15%	-4%	11%	45µM*	CCOc1cccc2sc(N(CCN(C)C)C(=O)/C=C/c3cccs3)nc12
-1%	26%[59 µM]	-7%	13%	?	CCOC(=O)c1csc(NC(=O)CSc2nnc(C3CC3)n2C)n1
-1%	45%	-4%	?	-13%	Cc1cc(C)cc(C(=O)N/N=C/c2ccoc2)c1
-3%	25µM*	-13%	3%	?	COc1cc2ccccc2cc1C(=O)N(CCN(C)C)c1nc2ccc(Br)cc2s1
1%	6%[12.7 µM]	11%	-15%	-18%	O=C(NCc1ccco1)Nc1ccccc1Cl
2%	.	.	.	.	CCCCC1=CC2=C(OC(C)=O)C(=O)C(C)(OC(=O)CCC(=O)OC)C(=O)C2=CO1 (stereo not given)
-2%	20%[12.7 µM]	4%	3%	-2%	O=C(O)c1cccc(C(=O)O)c1
-1%	-19%	.	.	.	COc1ccc(/C=C2\Sc3ccc(C(=O)N4CCc5ccccc5C4)cc3N(C)C2=O)cc1
-8%	-6%[0.501 µM]	-6%	30%	-22%	Cc1ccccc1CN1CCN(Cc2cc3ccccc3o2)CC1CCO (stereo not given)
.	6%[12.7 µM]	15%	2%	-3%	CC12CCC3c4ccc(O)cc4CCC3C1CC(O)C2O (stereo not given)
.	-2%[2.33 µM]	-18%	-2%	-18%	O=C(COC(=O)/C=C/c1cccc(Br)c1)Nc1cccc(S(=O)(=O)NC2=NCCC2)c1
-3%	56µM*	-4%	?	?	c1ccc(COc2ccc(CN3CCN(c4ccccn4)CC3)cc2)cc1
-4%	-17%	-3%	73%[activator]	0%	O=C(CSc1nc(NS(=O)(=O)c2ccccc2)cc(=O)[nH]1)Nc1ccccc1Cl
.	.	-14%	-13%	-15%	O=C(COC(=O)c1cccc(Cl)c1)Nc1cccc(S(=O)(=O)NC2=NCCC2)c1
.	.	-12%	94%[activator]	-1%	O=C(Nc1ccccc1)[C@@H]1CCCN1S(=O)(=O)c1ccc(Cl)cc1
-3%	-50%[59 µM]	0%	-5%	-13%	CCOC(=O)c1c(NC(=O)C2c3ccccc3Oc3ccccc32)sc(C(=O)N(CC)CC)c1C
-1%	-2%	0%	-1%	-10%	CC(=O)Nc1cc2c(cc1NC(=O)c1cnccn1)OCCO2
.	-18%[2.33 µM]	-4%	5%	-3%	Cc1ccc(S(=O)(=O)N2CCN(Cc3cc4c(cc3Br)OCCO4)CC2)cc1
-11%	-10%	-7%	39%[activator]	-9%	COc1ccccc1OCCCC(=O)NCc1ccco1
-14%	28%[59 µM]	-5%	2%	63%[activator]	COc1cc(C=O)ccc1OCCOCCOc1c(C)cc(Cl)cc1Cl
-20%	-14%[59 µM]	-10%	12%	-6%	Cc1ccc(/C=N/NC(=O)c2sccc2OCc2ccc(F)cc2)cc1
-27%	-39%	-33%	25µM*	-14%	Cc1cc2oc(C(=O)NCCc3ccc(S(N)(=O)=O)cc3)c(C)c2cc1C
-1%	26%	7%	-14%	-16%	Cc1cccc(N2CC(C)Cn3c2nc2c3c(=O)[nH]c(=O)n2C)c1 (stereo not given)
-11%	-14%	-28%	?	-6%	O=C(CNC(=O)c1cc2c(s1)CCC2)Nc1ccccc1Br
-3%	-3%[12.7 µM]	-2%&11%	15%&-3%	-9%	c1coc(CNc2ncnc3ccccc23)c1
-7%	?	-5%	?	-28%	COc1ccc(NC(=O)/C(C#N)=C\c2cc(OC)c(OCc3ccc(C(=O)O)cc3)cc2Br)cc1
-7%	50µM*	-1%	1%	-13%	Cc1oc(-c2ccc(Cl)cc2)cc1C(=O)/C(C#N)=C/Nc1cccc(OC(F)(F)F)c1
0%	-9%[59 µM]	.	.	.	CCOc1ccc(N2CCCCn3c2nc2c3c(=O)[nH]c(=O)n2C)cc1
.	.	-5%	-5%	-9%	Cc1cnc(NC(=O)Cc2ccc(S(=O)(=O)N3CCOCC3)s2)s1
-3%	50µM*	7%	-9%	-27%	O=C(CCS(=O)(=O)c1ccccc1)Nc1nc2c(s1)COc1ccccc1-2
3%	5%[12.7 µM]	-11%[60.1 µM]	?	9%	Cc1ccccc1NS(=O)(=O)c1ccc2[nH]cc(C(=O)N3CCCCC3)c(=O)c2c1
.	9%[12.7 µM]	2%	15%	-23%	O=C1NC[C@H](CC2CCCCC2)N(CC2CCCCC2)C1=O
-8%	-9%	-3%	4%	-33%	CC12CCC(C/C1=N\N=C1\NC(=O)/C(=C\c3ccc(Cl)cc3)S1)C2(C)C (stereo not given)
-4%	.	-20%	97%[activator]	-3%[11.4 µM]	Cc1ccc2c(C)c(C(=O)NCc3ccc(S(N)(=O)=O)cc3)oc2c1C
-3%	8%	-3%	52%[activator]	-16%	Cc1occc(=O)c1OCc1c(F)cccc1Cl
2%	14%[0.501 µM]	-6%[60.1 µM]	.	.	Cn1cc(-c2nc3cnc(Oc4ccccc4)nc3n(Cc3cccs3)c2=O)c2ccccc21
-1%	?	-5%	?	-13%[11.4 µM]	CSc1nc(NCc2ccco2)c2ccccc2n1
-26%	?	-90%	45µM*	-31%	Cc1ccc2c(=O)cc(C(=O)NCCc3ccc(S(N)(=O)=O)cc3)oc2c1
0%	-14%	0%	50%[activator]	-5%	CCOc1ccccc1NS(=O)(=O)c1ccc2[nH]c(=O)[nH]c2c1
-1%	-32%[59 µM]	-2%	22%	5%	O=C(COC(=O)/C=C/c1cnc2ccccc2n1)NCC(F)(F)F
1%	?	4%	0%	6%	CCOc1ccc2nc(N(CCN(C)C)C(=O)/C=C/c3cccs3)sc2c1
4%	.	-6%[60.1 µM]	.	.	COc1ccccc1CNc1ncncc1-c1cccc(C#N)c1
-1%	-2%[12.7 µM]	-1%	14%	-15%	CCc1nnc(NC(=O)C2COc3ccccc3O2)s1 (stereo not given)

# 15 compounds already listed, ordered by molar mass, lowest first:
BLM inh	G9a block	POLK inh	POLI inh	JMJD2A Tudor	SMILES
-3%	-3%[12.7 µM]	-2%&11%	15%&-3%	-9%	c1coc(CNc2ncnc3ccccc23)c1
-3%	8%	-3%	52%[activator]	-16%	Cc1occc(=O)c1OCc1c(F)cccc1Cl
.	9%[12.7 µM]	2%	15%	-23%	O=C1NC[C@H](CC2CCCCC2)N(CC2CCCCC2)C1=O
4%	.	-6%[60.1 µM]	.	.	COc1ccccc1CNc1ncncc1-c1cccc(C#N)c1
0%	-9%[59 µM]	.	.	.	CCOc1ccc(N2CCCCn3c2nc2c3c(=O)[nH]c(=O)n2C)cc1
.	.	-12%	94%[activator]	-1%	O=C(Nc1ccccc1)[C@@H]1CCCN1S(=O)(=O)c1ccc(Cl)cc1
-4%	.	-20%	97%[activator]	-3%[11.4 µM]	Cc1ccc2c(C)c(C(=O)NCc3ccc(S(N)(=O)=O)cc3)oc2c1C
-26%	?	-90%	45µM*	-31%	Cc1ccc2c(=O)cc(C(=O)NCCc3ccc(S(N)(=O)=O)cc3)oc2c1
.	.	-5%	-5%	-9%	Cc1cnc(NC(=O)Cc2ccc(S(=O)(=O)N3CCOCC3)s2)s1
-14%	28%[59 µM]	-5%	2%	63%[activator]	COc1cc(C=O)ccc1OCCOCCOc1c(C)cc(Cl)cc1Cl
-3%	50µM*	7%	-9%	-27%	O=C(CCS(=O)(=O)c1ccccc1)Nc1nc2c(s1)COc1ccccc1-2
-7%	50µM*	-1%	1%	-13%	Cc1oc(-c2ccc(Cl)cc2)cc1C(=O)/C(C#N)=C/Nc1cccc(OC(F)(F)F)c1
2%	14%[0.501 µM]	-6%[60.1 µM]	.	.	Cn1cc(-c2nc3cnc(Oc4ccccc4)nc3n(Cc3cccs3)c2=O)c2ccccc21
.	-18%[2.33 µM]	-4%	5%	-3%	Cc1ccc(S(=O)(=O)N2CCN(Cc3cc4c(cc3Br)OCCO4)CC2)cc1
-3%	-50%[59 µM]	0%	-5%	-13%	CCOC(=O)c1c(NC(=O)C2c3ccccc3Oc3ccccc32)sc(C(=O)N(CC)CC)c1C

# New compounds follow
BLM inh	G9a block	POLK inh	POLI inh	JMJD2A Tudor	SMILES
.	-48%	-26%	15%	-15%	CC(=O)N/C(=C\c1ccccc1)C(=O)OCC(=O)Nc1cc(S(=O)(=O)N(C)C)ccc1Cl
-3%	.	-10%	8%	-8%	COc1ccccc1C(=O)NNC(=O)CN1C(=O)c2ccccc2C1=O
-8%	13%[59 µM]	-8%	9%	-2%	CCC(C)NCC(=O)Nc1cc(S(=O)(=O)N(CC)c2ccccc2)ccc1Cl (stereo not given)
-1%	-25%[0.501 µM]	4%[60.1 µM]	.	.	CS(=O)(=O)Nc1cccc(-c2cncnc2NCc2ccccc2)c1
.	-17%[59 µM]	-38%	?	-35%	COC(=O)c1c(C)[nH]c(C(=O)COc2ccc3ccc(=O)oc3c2)c1C
1%	7%[12.7 µM]	-4%[12 µM]	.	.	COc1cc([C@H]2c3cc4c(cc3[C@@H](O[C@H]3O[C@H]5CO[C@@H](C)O[C@H]5[C@@H](O)[C@@H]3O)[C@@H]3COC(=O)[C@H]23)OCO4)cc(OC)c1O
-3%	.	.	.	.	CCCCC1=CC2=C(c3ccco3)C(=O)C(C)(OC(=O)c3ccc(Cl)nc3)C(=O)C2=CO1 (stereo not given)
-7%	-14%[59 µM]	-19%	30%[activator]	-16%	CCOc1cc(/C=N\NC(N)=O)cc(Br)c1OC(C)C
2%[21.4 µM]	24%[21.5 µM]	-2%[12 µM]	.	.	C[C@@]12CC[C@@H]3c4ccc(O)cc4CC[C@H]3[C@H]1C[C@@H](O)[C@H]2O
4%	.	-6%[60.1 µM]	.	.	CS(=O)(=O)Nc1cccc(-c2nccc(-n3ccnc3)n2)c1
-7%	.	-3%	16%	20%	Cc1ccc(-n2ncc(Cl)c2C(=O)NC2CC2)cc1
5%	?	11%	-17%	-13%	COc1cccc(OCCn2ccnc2)c1
0%	.	-9%	34%[activator]	-4%	CCn1c(CN2CCOCC2)nnc1SCC(=O)Nc1ccc(C)cc1
-1%	2%	-15%	16%	-7%	Cc1ccc(-c2ccnc(=S)[nH]2)cc1
.	?	-5%	16%	-9%	Cc1cc(CN2CCN(CC(=O)Nc3cc(Cl)ccc3-n3cncn3)CC2)no1
-8%	?	-8%	?	-20%	O=C(COC(=O)c1cc(S(=O)(=O)NCc2ccccc2)ccc1O)c1cc2ccccc2o1
